# CtBP-E1A inh: qHTS Assay for Inhibitors of the CtBP/E1A Interaction; AlphaScreen GST-E1A/His-CtBP binding, 1536-well; hits give low values; control for the full effect not named in the record; activity change, % (concentration not given with the values); CtBP / adenovirus E1A interaction (AlphaScreen); AID 651724, 2012; 340,000 compounds, 0.49% hits; in the data active means activity change below about -65%; inconclusive means about -30% to -65%; inactive means above about -30%; note: % is set by controls: 0 for no effect and ±100 for the full control effect
#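 Homogeneous bead-based format: GST-tagged E1A captured on glutathione donor beads, His-tagged CtBP on nickel acceptor beads; compounds precede bead addition by 2 h at 37 °C.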
# TRPML1 blocker: qHTS for Inhibitors of the Human Mucolipin Transient Receptor Potential 1 (TRPML1). AID 624415, 2012. Mucolipin-1 (Homo sapiens), Q9GZU1. activity change, negative = inhibition, % (test concentration not listed). 390,000 compounds, 0.02% hits. TRPML1-inducible cells, Ca2+ dye fluorescence, FDSS; hits give low values; inhibition of EC80 agonist-evoked calcium signal; in the data active means activity change below about -50%; inconclusive means about -30% to -50%; inactive means above about -30%;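 note: stimulus is agonist 54-4 at its EC80 concentration; % is set by controls: 0 for no effect and ±100 for the full control effect; compound concentration not given in the record; the text of the record puts the active cut at -80%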
# Target sequence (Q9GZU1 whole entry, looked up): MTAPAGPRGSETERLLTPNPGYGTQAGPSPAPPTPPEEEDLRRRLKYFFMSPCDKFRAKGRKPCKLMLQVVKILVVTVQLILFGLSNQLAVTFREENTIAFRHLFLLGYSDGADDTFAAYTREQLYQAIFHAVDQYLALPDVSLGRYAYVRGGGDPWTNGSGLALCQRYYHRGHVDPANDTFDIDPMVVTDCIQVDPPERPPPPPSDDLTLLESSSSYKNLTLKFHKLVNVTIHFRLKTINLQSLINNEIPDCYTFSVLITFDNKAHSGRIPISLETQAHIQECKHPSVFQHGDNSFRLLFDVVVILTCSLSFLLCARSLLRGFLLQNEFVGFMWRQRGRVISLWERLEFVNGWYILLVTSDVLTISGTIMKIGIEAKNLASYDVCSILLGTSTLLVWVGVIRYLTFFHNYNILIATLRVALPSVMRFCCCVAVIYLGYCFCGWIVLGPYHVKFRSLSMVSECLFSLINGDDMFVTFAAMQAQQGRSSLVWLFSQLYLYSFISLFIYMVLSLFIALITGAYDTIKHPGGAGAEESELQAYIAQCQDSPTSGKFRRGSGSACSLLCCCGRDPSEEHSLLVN
#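 Tet-induced TRPML1-DL cells loaded with Ca8 no-wash calcium dye were read kinetically on FDSS. Compound addition was followed by EC80 agonist 54-4 (4 uM final); inhibition was read over 110 s.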
# PINK1 modulator: A Quantitative High throughput Screen to Identify Chemical Modulators of PINK1 Expression; 410,000 compounds, 0.2% hits; Potency, µM (series often up to 76.6 µM), for inactives: top-dose activation (PINK1 increase), hits mostly activators; PINK1 immunofluorescence, high-content cytometry, 24 h; AID 624263, 2012; active = well fitted activation curve with a large enough effect; inconclusive = small, poorly fitted or top-dose-only effect; inactive = flat fitted curve, though single readings scatter; cell line not stated here;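 note: potency is the fitted concentration of half-maximal effect; % of control where 0% means no effect; nearly all actives have a fitted effect of over 65% in size; a mitochondrial uncoupler was the plate control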
#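 Readout is PINK1 immunofluorescence, quantified alongside mitochondrial, cell and nuclear markers by laser-scanning microplate cytometry. Cells from a stable line were exposed to compound titrations (5 concentrations) for 24 hours, with CCCP controls.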
# D2 ag: Beta-Arrestin HTS for Positive Allosteric Modulators of the Human D2 Dopamine Receptor: Agonists | DiscoveRx PathHunter D2 beta-arrestin, luminescence, 90 min; 100% = 57 uM dopamine signal | activation, % (test concentration not listed) | D(2) dopamine receptor (Homo sapiens), P14416 | 360,000 compounds, 0.084% hits; in the data active = activation above about 40%; inconclusive = about 15% to 40%; inactive = below about 15%; note: compound concentration not given in the record; the text of the record calls up to 30% inactive
# Target sequence (P14416 whole entry, looked up): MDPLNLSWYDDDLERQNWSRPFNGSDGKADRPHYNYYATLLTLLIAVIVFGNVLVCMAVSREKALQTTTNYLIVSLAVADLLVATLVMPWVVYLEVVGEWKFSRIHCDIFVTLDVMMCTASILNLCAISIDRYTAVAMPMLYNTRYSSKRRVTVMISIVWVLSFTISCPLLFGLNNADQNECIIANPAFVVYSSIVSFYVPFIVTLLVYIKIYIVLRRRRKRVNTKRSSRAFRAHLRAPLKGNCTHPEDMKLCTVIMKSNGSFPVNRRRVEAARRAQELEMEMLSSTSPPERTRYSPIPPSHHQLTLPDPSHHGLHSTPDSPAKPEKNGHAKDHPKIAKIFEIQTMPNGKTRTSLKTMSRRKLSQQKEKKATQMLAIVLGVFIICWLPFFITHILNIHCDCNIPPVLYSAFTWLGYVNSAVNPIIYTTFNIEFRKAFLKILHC
#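 Agonist mode: compounds alone added to overnight-plated D2 PathHunter cells for 90 min at 37 C, with 57 uM final dopamine (EC100) defining full response. Beta-arrestin recruitment detected by chemiluminescent reagent, read after 1 h at ambient temperature.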
# TRPML1 ag: qHTS for Agonists of the Human Mucolipin Transient Receptor Potential 1 (TRPML1). Mucolipin-1 (Homo sapiens), Q9GZU1. TRPML1-expressing cells, Ca2+ dye fluorescence, FDSS; host cell line not named in the record; reference of the full effect not given here. activation, % (concentration not given with the values). 410,000 compounds, 0.12% hits. AID 624414, 2012; in the data active = activation above about 50%; inconclusive = about 30% to 50%; inactive = below about 30%; note: 0% is about no effect; the text of the record puts the active cut at 80%
#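 In this qHTS format, compounds were pin-transferred onto Ca8-dye-loaded TRPML1-DL cells induced with Tet overnight, and intracellular Ca2+ fluorescence was recorded kinetically for 110 s after a 10 s baseline. A subsequent 4uM final 54-4 (EC80) addition followed by a second 110 s read served as the antagonist phase.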
# Six1-Eya2 inh: qHTS Assay for Inhibitors of the Six1/Eya2 Interaction; Homeobox protein SIX1 (Homo sapiens) + Protein phosphatase EYA2 (Homo sapiens), …; AlphaScreen GST-Six1/His-Eya2 binding, biochemical; hits give low values; control for the full effect not named in the record; activity change, % (concentration not given with the values); 360,000 compounds, 0.56% hits; in the data active = activity change below about -65%; inconclusive = about -30% to -65%; inactive = above about -30%; note: % is set by controls: 0 for no effect and ±100 for the full control effect
#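 AlphaScreen with GST-Six1 and His-Eya2 (5X mix: 250 nM and 500 nM), glutathione donor and nickel acceptor beads; buffer 50 mM Tris pH 8.0, 300 mM NaCl, 1 mM TCEP; 1 h at 37 C in the dark.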
# * = called active by the depositor; ? = inconclusive; nt = not tested or not shown; & = joins results of further samples; [ ] = another dose, or the depositor's remark.
SMILES,CtBP-E1A inh,TRPML1 blocker,PINK1 modulator,D2 ag,TRPML1 ag,Six1-Eya2 inh
O=S1(=O)N=C(Nc2nncs2)c2ccccc21,-11.5,-12.0,6.2%[38.3 µM],-0.3,-0.4,-3.2
CCC(CO)NCc1ccc(-c2ccccc2)cc1 (configuration not stated),-11.5,11.8,0.5%,-1.0,1.8,10.5
CCOc1cccc(-c2nnc3sc(COc4ccccc4)nn23)c1,5.4,-5.4,29.2%[38.3 µM],-0.9,2.0,3.1
CCOC(=O)NC(c1ccc(C(C)C)cc1)C(Cl)(Cl)Cl (configuration not stated),3.4,2.8,4.6%,-9.0,0.1,-8.8
CC(C#N)(NC(=O)COC(=O)c1ccccc1NCCO)C1CC1 (configuration not stated),-25.5,1.2,1.0%,2.3,-0.8,2.3
O=C(CN1CCc2ccccc2C1)Nc1ccc(F)cc1F,5.9,28.8,2.2%,1.0,1.3,-3.2
O=C(NNC(=O)C1CC1)c1ccccc1[N+](=O)[O-],9.4,-2.7,0.6%,-3.7,-0.5,2.9
COc1ccc(/C(O)=C2\C(=O)C(=O)N(CCN3CCOCC3)C2c2ccccc2OC)cc1 (configuration not stated),9.2,-2.1,14.0%,-0.5,0.0,3.3
Cc1ccc(-c2cc(Cc3ccccc3)c(=O)[nH]n2)cc1,2.9,7.5,1.2%,-8.0,0.7,3.3
CCOc1ccc(CCNC(=O)CCCn2nc(C)c3sc4ccccc4c3c2=O)cc1OCC,nt,-5.4,0.0%,nt,3.4,nt

SMILES,CtBP-E1A inh,TRPML1 blocker,PINK1 modulator,D2 ag,TRPML1 ag,Six1-Eya2 inh
Cc1cc(C)cc(OCC(=O)NCCN2CCOCC2)c1,2.6,7.2,-2.0%,-1.8,-0.4,-0.6
CC(C)C(NC(=O)C12CC3CC(CC(C3)C1)C2)C(=O)O (configuration not stated),17.6,16.2,10.7%,-2.6,0.0,2.4
COc1ccc(-c2noc(COc3ccccc3OC)n2)cc1OC,0.8,24.5,0.8%,4.6,-1.3,0.5
O=C(NC(N1CCOCC1)C(Cl)(Cl)Cl)c1ccco1 (configuration not stated),5.8,1.7,5.7%,-4.2,-0.4,-1.4
c1ccc(-c2ccc(CNC3CC3)cc2)cc1,3.3,11.7,5.5%,1.9,1.3,3.3
Cc1cccc(-c2ncc(CN3CCC(CO)(CCCc4ccccc4)CC3)cn2)c1,-0.2,-8.0,4.9%,-2.8,-0.6,-5.2
CCOC(=O)C1(CCSC)NC(c2ccco2)C2C(=O)N(CC)C(=O)C21 (configuration not stated),-1.0,19.9,-2.9%,0.2,0.2,-1.5
COc1ccc(NC(=O)CCNC(=O)c2ccc([N+](=O)[O-])cc2)cc1S(=O)(=O)N1CCCCC1,-22.2,-5.4,-0.9%,8.2,0.7,0.8
CCOc1ccc(N(CC(=O)NCc2ccc(Cl)cc2)S(=O)(=O)c2c(C)noc2C)cc1,nt,5.1&-16.4,3.8%&1.6%,-3.4,3.5&-0.9,4.6
Cc1nc(CNS(=O)(=O)c2cccnc2)cs1,-2.0,6.8,nt,0.9,0.7,0.9

SMILES,CtBP-E1A inh,TRPML1 blocker,PINK1 modulator,D2 ag,TRPML1 ag,Six1-Eya2 inh
CNC(=O)C1CCN(S(=O)(=O)c2c(C)noc2/C=C/c2ccc(OC)cc2)CC1,0.2,0.8,3.3%,-9.6,0.0,3.3
Cc1cc(C)c(NC(=O)OCCN2CCOCC2)c(C)c1,0.7,37.0,0.6%,-1.9,-0.8,6.6
COc1cc2c(C#CCCO)c(-c3ccc(C#N)cc3)oc(=O)c2cc1OC,-4.4,-3.3,3.5%,0.5,0.3,1.1
CCCCNC(=O)CSc1nnc(Cc2ccccc2)n1CC1CCCO1 (configuration not stated),10.1,9.6,-0.5%,0.9,1.8,3.2
Cc1ccccc1CNC(=O)CN1C(=O)c2ccccc2S1(=O)=O,2.9,14.1,2.9%,-1.9,-0.5,7.6
CCCNC(=O)c1cc2ccccc2c(=O)o1,4.0,5.0,0.5%,-0.6,0.4,6.4
COc1ccc(NS(=O)(=O)c2cccc(C(=O)N/N=C/c3ccccn3)c2)cc1,-26.2,-10.7,3.3%,-3.3,-0.5,-12.7
Cc1c(C(=O)Nc2ccc(S(=O)(=O)NCC3CCCO3)cc2)cccc1[N+](=O)[O-] (configuration not stated),-7.3,-7.4,-1.5%,3.4,1.3,1.7
COc1cc(C(=O)OC(C)C(=O)Nc2ccc3c(c2)OCO3)ccc1OCc1c(C)noc1C (configuration not stated),0.8,21.7,-2.0%,-2.1,1.0,-3.8
COc1cc2cc(CNc3ccccc3)c(=O)n(CC(=O)Nc3ccc(C)c(Cl)c3)c2cc1OC,nt,-13.4,0.9%,nt,3.1,nt

SMILES,CtBP-E1A inh,TRPML1 blocker,PINK1 modulator,D2 ag,TRPML1 ag,Six1-Eya2 inh
COc1cc2cc(C(=O)N3CCN(c4ccccc4OC)CC3)[nH]c2cc1OC,7.1,23.8,-1.2%,2.5,-0.5,7.8
O=C(C[n+]1ccc2ccccc2c1)Nc1cc(C(F)(F)F)ccc1Cl,6.0,11.3,1.4%,-1.3,1.1,7.6
CC(C)CNc1nc(N)c([N+](=O)[O-])c(NCC2CCCO2)n1 (configuration not stated),-6.9,-3.2,0.7%,-5.1,-0.3,-4.2
CN(Cc1ccccc1)C(=O)c1[nH]cnc1C(=O)NCC(=O)OCc1ccccc1,0.2,-6.6,2.2%,0.4,0.1,1.1
CC(NC(=O)CCCN1C(=O)c2ccccc2C1=O)c1ccc2c(c1)CCCC2 (configuration not stated),4.1,3.1,1.0%,-0.4,-0.1,2.3
O=C(NN=Cc1ccccc1OC(F)F)c1ccc(NS(=O)(=O)c2cccs2)cc1,?,1.9,3.2%,-2.3,0.4,?
CCC(C)(C)NC(=O)C(c1ccc(C)o1)N(C(=O)c1csnn1)c1cccc(F)c1 (configuration not stated),33.8,-3.2,1.7%,-3.7,-0.4,21.8
NC(=O)c1ccc(NCCc2cccs2)cc1,0.1,nt,1.4%,-4.8,1.9,-3.6
CC(C)(C)NC(=O)c1ccc2c(c1)N(CC(=O)N1CCN(c3ccccc3F)CC1)C(=O)C(C)(C)O2,5.5,-6.5,4.6%[38.3 µM],-2.0,-0.8,3.4
COc1ccc(CC(N)c2csc(Nc3cccc(OC)n3)n2)cc1 (configuration not stated),-21.0,nt,-1.2%,5.6,1.8,-8.4

SMILES,CtBP-E1A inh,TRPML1 blocker,PINK1 modulator,D2 ag,TRPML1 ag,Six1-Eya2 inh
Cc1ccc(C(=O)NCC(=O)NCC(c2cccs2)N2CCOCC2)cc1C (configuration not stated),3.4,20.9,2.6%,2.4,-0.8,-0.5
C[C@@H]1CN([C@@H](C)CO)S(=O)(=O)c2ccc(C#Cc3cccc(F)c3)cc2O[C@H]1CN(C)S(=O)(=O)c1cn(C)cn1,3.5,3.4,-0.3%,-6.7,3.7,3.0
Cc1cc(C)nc(SCC(=O)OCN2C(=O)c3ccccc3C2=O)n1,-2.2,0.4,-0.9%,-4.0,-1.0,-2.7
O=C(Oc1ccccc1C(=S)N1CCOCC1)c1ccc([N+](=O)[O-])cc1[N+](=O)[O-],-12.3,-2.7,2.3%,?,-0.6,-9.3
CCOc1ccc(C(=O)/C=C/c2ccccc2C(F)(F)F)cc1,3.0,3.6,-0.1%[38.3 µM],-1.3,-0.3,2.0
CC(C)C(=O)N1CCN(c2ccccc2NC(=O)COc2ccccc2)CC1,-9.1,17.0,-0.7%,-1.3,1.4,-10.2
Cc1ccc(S(=O)(=O)NCCC(=O)NCc2ccc3c(c2)OCO3)cc1C,-1.0,1.4,-0.8%,-0.8,3.2,-0.5
CN(Cc1c(F)cccc1Cl)C(=O)COC(=O)Cn1cnc2ccccc2c1=O,-0.4,-16.4,1.8%,-1.6,-0.8,-4.4
CCN(CC(=O)NCc1ccc(F)cc1)CC(=O)Nc1ccc(Br)cc1F,-15.4,0.3,2.4%,-1.1,0.7,-4.9
CC(C)CN1CCN(Cc2cccc3cccnc23)CC1CCO (configuration not stated),-10.2,-5.6,-0.3%,1.9,0.8,-12.6

SMILES,CtBP-E1A inh,TRPML1 blocker,PINK1 modulator,D2 ag,TRPML1 ag,Six1-Eya2 inh
COC(=O)[C@@]1(Cc2ccc(OC)cc2)[C@H]2c3cc(C(=O)N4CCCC4)n(Cc4ccc(Cl)c(C(F)(F)F)c4)c3C[C@H]2CN1C(=O)c1ccccc1,-0.7,nt,2.6%,nt,0.5,-12.4
Cc1cc(S(=O)(=O)Nc2ccc(C(=O)NCC(C)(C)N3CCOCC3)cc2)ccc1F,-2.5,-4.1,-1.6%,-2.3,-0.7,2.3
Cc1ccc(N2CC(C(=O)O)CC2=O)cc1 (configuration not stated),5.5,-1.8,0.9%,-4.9,-0.1,8.8
O=C(NC(=S)N1CCCC1)c1ccc(Cl)cc1Cl,-3.2,6.5,2.4%,-1.4,1.4,-0.6
CCOc1ccc(/C=C(\C#N)c2nc3ccccc3c(=O)[nH]2)cc1OC,nt,72.5,-0.2%,nt,1.1,nt
O=[N+]([O-])c1cnc2ccccc2c1,-21.0,5.4,-0.6%,3.9,-0.4,-16.1
Cc1ccccc1Cn1nnc(C(=O)Nc2cccc(C)c2C)c1N,1.9,-14.9,1.6%,7.8,9.7,7.3
Cc1cc(C)n(CCc2nc3c4ccccc4nc(N4CCN(c5cccc(C)c5C)CC4)n3n2)n1,nt,-7.8,1.4%,nt,-0.5,nt
O=C(Oc1ccc(OC(=O)N2CCOCC2)cc1)c1ccccc1,1.7,-20.4,-1.4%,-0.6,-0.3,1.0
Nc1c(OS(=O)(=O)c2ccccc2)cccc1OS(=O)(=O)c1ccccc1,-8.4,-3.9,0.4%,0.4,1.2,7.6

SMILES,CtBP-E1A inh,TRPML1 blocker,PINK1 modulator,D2 ag,TRPML1 ag,Six1-Eya2 inh
CN(C1CCCCC1)S(=O)(=O)c1ccc2c(c1)c(=O)c(C(=O)NCCc1ccc(Cl)cc1)cn2C,nt,21.8,3.0%,nt,-0.5,nt
CSc1ccc(S(=O)(=O)NCC(=O)OCCOc2ccccc2)cc1[N+](=O)[O-],-14.2,6.6,13.1%,-3.1,0.5,-16.8
Cc1sc2ncnc(SCC(=O)Nc3nc(-c4ccc(F)c(F)c4)cs3)c2c1C,nt,-6.7,4.6%,3.9,?,-1.0
CC(=O)N1c2ccc(S(=O)(=O)N3CCCCCC3)cc2CC1C(=O)NCc1ccccc1 (configuration not stated),nt,-15.2,0.6%,nt,-0.8,nt
Cc1ccc(-n2cnc3cc(C(=O)NCc4ccccc4Cl)ccc32)c(C)c1,nt,-8.0,0.1%,nt,1.2,nt
O=C(Nc1ncn[nH]1)c1cc([N+](=O)[O-])ccc1Cl,-13.5,5.4,2.3%,-1.3,0.2,-4.6

# Source: PubChem BioAssay
